# A488 fluor – compound autofluorescence in A488 spectral region; compound autofluorescence, A488 spectral region, dye equivalency; stronger effect = higher value; max dye equivalency, M; actives 0.1% (n = 59,000); active = above 10 nM dye equivalent; inconclusive = 1 to 10 nM; inactive = 1 nM or less; about half of its hits are not listed in these tables;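 also: highest value over a series up to 38 µM; compound alone in buffer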
#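 Read-out: relative fluorescence at 480/540 nm, expressed as Alexa 488 dye-equivalent concentration from a six-point A488 standard included per plate. Conditions: 100 mM Tris, pH 8.0; 15 min incubation, room temperature.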
# AID923 – qHTS Assay for Allosteric/Competitive Inhibitors of Caspase-1: Spectroscopic Profiling in AFC Spectral Region. compound fluorescence, AFC spectral region (405/520 nm); almost no hit is shown here. actives 1.1% (n = 75,000). AID 923, 2007. Potency, µM (top dose mostly 57.5 µM), without a hit: top-dose fluorescence increase, most hits filed as activators; active = well fitted activation curve with a large enough effect; inconclusive = small, poorly fitted or top-dose-only effect;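 also: potency is read from the fitted curve at half-maximal effect; 0% is about no effect; scaled to a free AFC standard on each plate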
#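 Titrations up to 57 uM read every 20 sec for 3 min (405/520 nm) with 50 nM caspase 1 and 5 uM Ac-WEHD-AFC, pH 7.5 HEPES buffer. Fluorescence-vs-time intercept gave baseline, scaled against on-plate AFC standard.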
# Resorufin autofl – compound fluoresces in the resorufin spectral region; Compound fluorescence, resorufin region 547/598 nm, buffer; stronger effect = higher value; max dye-equivalent concentration, M; actives 0.04% (n = 59,000); active = above 10 nM dye equivalent; inconclusive = 1 to 10 nM; inactive = 1 nM or less; a few of its hits are not listed in these tables; also: highest value over a series up to 38 µM
#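 Read-out: intrinsic compound fluorescence at ex 547/em 598 nm after 15 min at RT in pH 8.0 Tris (100 mM). Values expressed as resorufin-equivalent concentration from per-plate standard series.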
# TSHR ag – activates the human thyroid stimulating hormone receptor; P16473; HEK293-CNG-TSHR cells (CNG channel as cAMP sensor), membrane potential dye, cAMP; Potency, µM (series often up to 57.1 µM), without a hit: top-dose activation, hits mostly activators; actives 0.48% (n = 73,000); AID 926; active = well fitted activation curve of enough size with the parental cells flat; inconclusive = any curve in the parental cells; inactive = parental cells flat and receptor cells flat or falling; also: potency is read from the fitted curve at half-maximal effect; % of control where 0% means no effect; weak receptor curves with flat parental cells got no call and are not listed
# Target sequence (P16473 whole entry, looked up): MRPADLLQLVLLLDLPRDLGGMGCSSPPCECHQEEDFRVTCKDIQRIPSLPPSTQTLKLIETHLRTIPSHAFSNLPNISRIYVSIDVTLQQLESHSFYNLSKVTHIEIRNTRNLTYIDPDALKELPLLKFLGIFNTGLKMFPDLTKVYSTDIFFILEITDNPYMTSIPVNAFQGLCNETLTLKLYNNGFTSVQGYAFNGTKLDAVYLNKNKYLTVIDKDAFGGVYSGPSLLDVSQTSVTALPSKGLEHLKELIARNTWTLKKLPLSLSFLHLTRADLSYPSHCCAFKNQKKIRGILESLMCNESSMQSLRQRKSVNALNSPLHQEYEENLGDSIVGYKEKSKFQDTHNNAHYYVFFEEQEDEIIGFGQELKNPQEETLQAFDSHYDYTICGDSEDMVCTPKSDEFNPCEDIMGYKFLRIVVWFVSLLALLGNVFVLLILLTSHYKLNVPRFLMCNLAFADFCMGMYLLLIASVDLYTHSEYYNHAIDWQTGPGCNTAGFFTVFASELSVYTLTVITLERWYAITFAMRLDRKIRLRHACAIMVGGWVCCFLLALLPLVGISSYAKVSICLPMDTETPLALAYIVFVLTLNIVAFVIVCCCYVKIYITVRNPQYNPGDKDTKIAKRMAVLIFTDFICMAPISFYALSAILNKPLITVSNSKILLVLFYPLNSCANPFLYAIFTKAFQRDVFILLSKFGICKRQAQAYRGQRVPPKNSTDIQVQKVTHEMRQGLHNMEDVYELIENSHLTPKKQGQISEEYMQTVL
#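 HEK 293 cells stably expressing TSHR and a modified CNG channel, with CNG-only parental cells as counterscreen, were preloaded 60 min at room temperature with membrane potential dye containing 100 uM RO 20-1724. Compound exposure was 30 min, and depolarization was read as fluorescence at 590 nm.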
# A647 autofl – compound autofluorescence in A647 spectral region; AID 592; 59,000 tested, under 10 active; max dye-equivalent concentration, M; Compound fluorescence, A647 channel (570/671 nm), Tris buffer; active means above 1 µM dye equivalent; inconclusive means 0.1 to 1 µM; inactive means 0.1 µM or less;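 also: values scaled relative to a standard on each plate; highest value over a series up to 38 µM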
#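 Spectral profiling of library compounds in pH 8.0 Tris: 15 min room-temperature incubation, single ex/em pair (570/671 nm), response normalized to Alexa 647 equivalents.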
# * hit, by the source's call; i = inactive; u = inconclusive; x = not tested or not shown; & = joins results of further samples; [ ] = dose if it differs, or a comment.
SMILES,A488 fluor,AID923,Resorufin autofl,TSHR ag,A647 autofl
O=C(O)Cn1cnc2scc(-c3cccs3)c2c1=O,i,0.9%,i,0.4%,1.3e-09
CC(=O)Oc1ccc(Oc2ccc(-c3noc(C)n3)cc2)cc1,i,0.1%,i,u,1e-09
Cc1c(/C=N/n2cnnc2)c2ccccc2n1CCOc1ccc(Cl)cc1,x,3.3%,x,9.8%,x
CC(=O)N1CCC2(CC1)CN(c1cccc(-c3ccccc3)c1)C2,i,2.3%,i,12.3%,1e-09
CCOc1ccc(NC(=O)N(C2CCCCC2)C(C)c2ccncc2)cc1 (centres undefined),i,-0.5%,i,19.3%,1.94e-08
COc1ccc(N2CCN(CC(=O)Nc3ccc(-n4cnnn4)cc3)CC2)cc1,i,2.0%,i,-0.2%,3.4e-09
CCCCc1nc(N2CCOCC2)c(C#N)c2c1COC(C)(C)C2,i,x,i,x,8.1e-09
CCCc1cc(N2CCN(c3ccccn3)CC2)n2nc(C)c(-c3ccccc3)c2n1,i,0.8%,i,14.5%,3.05e-08
CCCCN(C)C(=O)c1ccc2c(c1)N(CC)C(=O)c1ccccc1S2(=O)=O,x,4.6%,x,8.1%,x
CCc1ccccc1N(CC(=O)N1CCN(c2ccc(F)cc2)CC1)S(C)(=O)=O,x,-0.5%,x,20.0%[11.4 µM],x

# Sorted by formula weight (lowest first): three of the compounds above
SMILES,A488 fluor,AID923,Resorufin autofl,TSHR ag,A647 autofl
CC(=O)Oc1ccc(Oc2ccc(-c3noc(C)n3)cc2)cc1,i,0.1%,i,u,1e-09
CC(=O)N1CCC2(CC1)CN(c1cccc(-c3ccccc3)c1)C2,i,2.3%,i,12.3%,1e-09
Cc1c(/C=N/n2cnnc2)c2ccccc2n1CCOc1ccc(Cl)cc1,x,3.3%,x,9.8%,x

# Additional compounds:
SMILES,A488 fluor,AID923,Resorufin autofl,TSHR ag,A647 autofl
O=C(c1cnccn1)N1CCC[C@@]2(CCN(c3cccc(-c4ccccc4)c3)C2)C1,i,2.9%,i,u,1e-09
NCCSSCCN,i,0.4%[11.5 µM],i,u,1.22e-08&2.98e-08
CCOC(=O)Cn1c(CN(Cc2ccccc2)Cc2ccccc2)nc2c1c(=O)[nH]c(=O)n2C,i,-3.5%,i,u,1.07e-08
Cc1cc(C)nc(SCc2nnc(SCC#N)n2-c2cccc(Cl)c2)n1,i,1.2%,i,7.2%,1.07e-08
C1=C(c2ccccc2)CCN(c2nc3ccccc3n3cnnc23)C1,x,2.3%,x,7.7%,x
O=C1CN(C(=O)COC(=O)CCC(=O)c2ccc3c(c2)OCCO3)c2ccccc2N1,i,0.1%,i,-2.3%,4.6e-09
C/C(=N\O)c1cccc[n+]1Cc1ccccc1,i,1.8%[11.5 µM],i,4.3%[11.4 µM],6.5e-09
Cc1nn(-c2cccc(C(F)(F)F)c2)c(Cl)c1/C=N/n1cnnc1,i,-1.3%,i,5.2%,4.6e-09
Cn1c(=O)[nH]c(=O)c2c1nc(SCC(=O)O)n2CCc1ccccc1,i,3.4%,i,-11.3%,4.1e-09
Cc1ccccc1Cn1cc(S(=O)(=O)CC(=O)Nc2nccs2)c2ccccc21,i,1.5%,i,u,1e-09

# Complete entries as entered above:
# Cc1ccccc1Cn1cc(S(=O)(=O)CC(=O)Nc2nccs2)c2ccccc21 reads A488 fluor: i; AID923: 1.5%; Resorufin autofl: i; TSHR ag: u; A647 autofl: 1e-09
# Cc1cc(C)nc(SCc2nnc(SCC#N)n2-c2cccc(Cl)c2)n1 reads A488 fluor: i; AID923: 1.2%; Resorufin autofl: i; TSHR ag: 7.2%; A647 autofl: 1.07e-08
# O=C1CN(C(=O)COC(=O)CCC(=O)c2ccc3c(c2)OCCO3)c2ccccc2N1 reads A488 fluor: i; AID923: 0.1%; Resorufin autofl: i; TSHR ag: -2.3%; A647 autofl: 4.6e-09

# Next entries.
SMILES,A488 fluor,AID923,Resorufin autofl,TSHR ag,A647 autofl
O=C1CCC(=O)N1OCCCOc1ccc2c(c1)CCC2,i,-1.1%,i,-13.2%,7e-09
COC(=O)N1CCc2cc(OC)c(OC)cc2C1Cc1ccc(OC)cc1 (centres undefined),x,0.1%[11.5 µM],x,-1.5%[11.4 µM],x
CCN1CCN(C(=O)C2CCN(Cc3nc(-c4cccc(Cl)c4)oc3C)CC2)CC1,x,0.6%,x,16.8%,x
COC(=O)c1ccccc1NC(=O)C1CCCN(S(=O)(=O)c2ccccc2)C1 (centres undefined),i,-2.1%,i,26.3%,1.91e-08
COc1ccccc1N1CCN(C(=O)N2CCOCC2)CC1,x,-0.3%,x,-12.1%[11.4 µM],x
COc1ccc(N=c2oc3c(OC)cccc3cc2C(=O)NCc2ccco2)c(OC)c1,i,1.5%,i,u,1e-09
CC(=O)Nc1ccc(S(=O)(=O)N2CCN(C(C)CCc3ccccc3)CC2)cc1 (centres undefined),x,2.6%,x,-7.1%,x
COC(=O)N1CCC2(CCCN(Cc3ccccc3OC)C2)CC1,i,2.4%,i,10.9%,1e-09
CCOc1ccccc1/C=c1\sc2ncnn2c1=O,i,-0.3%,i,-10.2%,1e-09
O=C(C1CCC1)N1CCc2cc(S(=O)(=O)NCCN3CCN(c4ccccc4F)CC3)ccc21,i,-0.2%,i,1.8%[11.4 µM],1e-09
Nc1c(O)cccc1C(=O)C[C@@H](N)C(=O)O,i,1.5%[25.7 µM],i,-19.7%[25.6 µM],2.3e-09
Cc1cc(C(F)F)n2nc(C(=O)Nc3ccccc3Br)nc2n1,i,1.5%,i,-5.1%,1.9e-09
Nc1ccc(Cl)cc1Cl,x,-0.1%,x,u,x
Cc1cccc(Nc2ncc3c(n2)CC(C)CC3=O)c1 (centres undefined),i,1.7%,i,0.8%,3.58e-08
COC(=O)CSc1ncccc1-c1nc2ccccc2[nH]1,i,2.3%,i,1.2%,7.5e-09
CCn1c(SCC(=O)Nc2ccc(S(N)(=O)=O)cc2)nnc1-c1cccc(OC)c1,i,1.9%,i,2.8%,1e-09
Cc1nc2ncnn2c(N2CCN(C(=O)c3cccc(F)c3)CC2)c1Cc1ccccc1,i,-0.9%,i,u,2.72e-08
CCOC(=O)N1CCN(C(=O)c2cn(CC)c3cc(N4CCN(C)CC4)c(F)cc3c2=O)CC1,i,x,i,x,1e-09
CCOc1ccc2[nH]c(=O)c(CN(Cc3ccc(F)cc3)C(=O)c3ccco3)cc2c1,i,-0.8%,i,u,2.25e-08
Clc1ccc(Oc2nc(Oc3ccc(Cl)cc3)nc(N3CCOCC3)n2)cc1,i,0.5%,i,-2.0%,1.4e-09
Cc1cc([C@](C)(N)C(=O)O)ccc1P(=O)(O)O,x,3.3%,x,0.3%,x
O=C(NCCOc1ccccc1)C1CCCN1C(=O)c1cccs1 (centres undefined),i,1.9%,i,-1.2%,5.29e-08
N#CCSCC(=O)Nc1ccccc1,i,-2.5%,i,-1.5%,2.43e-08
COc1ccc(CSCCN)cc1Cl,i,0.6%,i,-1.6%,1e-09
c1nc(N2CCNCC2)c2cc(-c3ccoc3)ccc2n1,i,3.2%,i,0.9%,2.54e-08
CCn1c(SCC(=O)c2cc(OC)ccc2OC)nc2c1c(=O)n(C)c(=O)n2C,i,-0.3%,i,1.6%[11.4 µM],1e-09
Cc1ccc(-c2c(C)n([O-])c3c([n+]2=O)CCCCC3)o1,x,1.8%,x,4.6%,x
CCC(C)NC(=O)C1CCN(S(=O)(=O)N2CCCC2)CC1 (centres undefined),i,-0.3%,i,12.4%,1e-09
CCN(c1ccccc1)S(=O)(=O)c1ccc(OCc2c(C)noc2C)cc1,i,-0.3%,i,u,1e-09
COCC(=O)N1CCC2(CCN(Cc3nccs3)CC2)CC1,i,3.4%,i,-2.2%,2.7e-09
COc1ccc(C(=O)CSC2=C(C#N)C3(CCCCC3)C(C#N)=C(N)N2)cc1,i,x,i,x,7.31e-08
CN(C)c1ncc2nc(CCc3ccccc3)c(=O)n(C[C@H]3CCCO3)c2n1,i,u,i,u,2.25e-08
COc1ccc(OC)c(S(=O)(=O)N(C)CC(=O)N2CCN(c3ccccc3F)CC2)c1,i,1.2%,i,-3.5%,1.7e-09
Cc1c(OCc2nn[nH]n2)ccc2c3c(c(=O)oc12)CCC(C)C3 (centres undefined),i,1.4%,i,22.6%,1e-09
COc1ccc(C(=O)OCCN2C(=O)c3ccccc3C2=O)cc1OC,x,1.5%,x,-2.6%,x
O=C(NC1CCCC1)NS(=O)(=O)c1ccccc1Cl,i,-1.3%,i,-2.9%,1e-09
CCn1c(CNC(=O)Cc2ccc(OC)cc2)nnc1SCC(=O)Nc1nccs1,i,-0.3%,i,8.4%,2.5e-09
CCCn1c(SCC(=O)Nc2cccc(C(=O)OCC)c2)nnc1-c1ccoc1C,i,2.6%,i,x,3.59e-08
CC1CCc2ccc(F)cc2N1S(=O)(=O)c1cccs1 (centres undefined),i,-0.3%,i,u,3.26e-08
COCCn1c(Cc2ccccc2)nnc1SCC(=O)Nc1cc(C)on1,i,0.4%,i,7.1%,2.88e-08
Cc1[nH]c2ccccc2c1C(=O)COC(=O)C1CC(=O)N(Cc2ccco2)C1 (centres undefined),i,3.6%,i,u,3.9e-09
COc1cc(-c2nnc(SCC(=O)N(Cc3ccccc3)C(C)(C)C)o2)cc(OC)c1OC,i,-0.6%,i,u,1.44e-08
CO[C@H]1COC(=O)[C@@H](C)COC(=O)[C@H](C)NC(=O)C/C=C\[C@H]1C,x,-0.1%[11.5 µM],x,1.8%[11.4 µM],x
Cn1nnnc1SCc1ccccc1F,i,1.5%,i,10.8%,1e-09
CCN(CC)S(=O)(=O)c1ccc(Cl)c(C(=O)OC)c1,x,0.6%,x,u,x
CCOC(=O)c1ccc(-n2ncc(C(=O)OCC)c2N)cc1,i,-1.6%,i,u,3.2e-09
Cc1cc(C)c(S(=O)(=O)N(CC(=O)N2CCCC2)C2CCCCC2)c(C)c1,i,-0.9%,i,x,3.52e-08
COc1cccc(C2=NOC(C(=O)N3CCN(c4ccccc4)CC3)C2)c1OC (centres undefined),x,1.6%,x,3.9%,x
O=C(NCc1ccccn1)C(F)(F)C(F)(F)C(=O)NCc1ccccn1,i,0.9%,i,3.3%,2.7e-09
Clc1cccc(OCCN2CCOCC2)c1,i,-1.5%,i,x,3e-09
# Other structures follow:
SMILES,A488 fluor,AID923,Resorufin autofl,TSHR ag,A647 autofl
CCCC(=O)Nc1ccc(C(=O)NCCCn2ccnc2)cc1,i,-1.6%,i,5.7%,2.53e-08
O=C(c1cc2nc(-c3ccc(F)cc3)cc(C(F)(F)F)n2n1)N1CCOCC1,x,-1.6%,x,u,x
O=C(CS(=O)(=O)c1c[nH]c2ccccc12)Nc1ccc2c(c1)OCCO2,i,0.0%,i,-3.3%,2.7e-09
CC(C)CC1(C(=O)O)NC(c2ccccc2O)C2C(=O)N(C(C)C)C(=O)C21 (centres undefined),x,1.6%,x,0.5%,x
COC(=O)c1cccc(NC(=O)CSc2nc3cccnc3n2C)c1,i,2.6%,i,-3.2%[11.4 µM],1e-09
CCOC(=O)c1ccc(N(CC(=O)NC2CCCC2)C(=O)CNC(=O)c2ccco2)cc1,i,0.4%,i,-5.9%,2.87e-08
COc1ccc(CCNC(=O)c2cnn3cccnc23)cc1OC,i,1.0%,i,-2.3%,1e-09
COc1ccc2c3c(ccc2c1)N[C@H](C(=O)O)CC3,i,0.1%[11.5 µM],i,7.2%[11.4 µM],2.69e-08
Cc1ccc(S(=O)(=O)C2(C(=O)N3CCCCC3C)CC2)cc1 (centres undefined),i,0.9%,i,1.4%,1e-09
COc1cc(N(C)C)c(NC(C)=O)cc1C(=O)O,i,-2.6%,i,-8.5%,3.2e-09
CCOc1ccc(NC(=O)c2nnn(CC(=O)Nc3ccccc3OCC)c2N)cc1,i,-0.4%,i,u,1.3e-09
Cc1nc(C)c(C(=O)C2=C(O)C(=O)N(CCN(C)C)C2c2ccccc2)s1 (centres undefined),i,0.0%,i,0.8%,1.07e-08

# From PubChem

# This is a subset. The share of hits here may be higher or lower than overall.
